# RGS16-Gao – modulates binding between human RGS16 and Galphao. actives 0.38% (n = 220,000). bead-based flow cytometry RGS16-Galphao binding, fluorescence; actives lie on both sides. binding response (% of control), % at 10 µM;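 active = below 25% or above 175%, edge rows of some plates excepted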;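 also: Galphao activated by GDP with aluminum fluoride before binding; 100% = wells without compound and 0% = beads without RGS; some results beyond the cut were filed as inactive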
# GALR2 agonist – GALR2 (human) receptor agonism; AID 803; O43603; activation, %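 (tested at 5 µM)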; actives 0.48% (n = 140,000); GALR2-expressing cells, agonist activation read-out;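 active = above mean plus 3 SD of all compounds, about 5% in these data, not always enough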;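 also: 0% = vehicle buffer wells and 100% = reference agonist at full effect; tested in CHO reporter cells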
# HSV augment – increases HSV replication in cells | AID 1956 | HSV replication augmentation in cells, fold increase | actives 0.005% (n = 220,000) | maximum fold increase;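 active = peak rise of 1.5-fold or more in the series; inconclusive = self-fluorescent or not available for retest; tested in PC3 cells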;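 also: first round at 10 µM; read as green reporter fluorescence; hits show the peak of a series up to 25 µM; 1 = signal of infected wells without compound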
# Insulin prom inh – TRM-6 insulin promoter activity inhibition; TRM-6 cells (human fetal islet line), insulin promoter-eGFP reporter, imaging; reporter expression induced with tamoxifen; inhibition, % at 2 µM; actives 0.9% (n = 130,000);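 active = inhibition above the mean plus 3 SD, with well images judged a real hit on visual review, cut at about 60% in these data, passing the limit was not always enough; inconclusive = inhibition over the cutoff but images rejected on review; inactive = inhibition not above the cutoff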
# PKD1 kinase inh – PKD1 (human) kinase inhibition | inhibition, %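 (about 10 µM by stock and volumes)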 | actives 0.056% (n = 200,000) | AID 797 | PKD1 kinase fluorescence polarization assay | Q15139;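 active = inhibition of 50% or more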;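 also: controls were vehicle for no effect and a reference inhibitor for full effect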
# Target sequence (Q15139 whole entry, looked up): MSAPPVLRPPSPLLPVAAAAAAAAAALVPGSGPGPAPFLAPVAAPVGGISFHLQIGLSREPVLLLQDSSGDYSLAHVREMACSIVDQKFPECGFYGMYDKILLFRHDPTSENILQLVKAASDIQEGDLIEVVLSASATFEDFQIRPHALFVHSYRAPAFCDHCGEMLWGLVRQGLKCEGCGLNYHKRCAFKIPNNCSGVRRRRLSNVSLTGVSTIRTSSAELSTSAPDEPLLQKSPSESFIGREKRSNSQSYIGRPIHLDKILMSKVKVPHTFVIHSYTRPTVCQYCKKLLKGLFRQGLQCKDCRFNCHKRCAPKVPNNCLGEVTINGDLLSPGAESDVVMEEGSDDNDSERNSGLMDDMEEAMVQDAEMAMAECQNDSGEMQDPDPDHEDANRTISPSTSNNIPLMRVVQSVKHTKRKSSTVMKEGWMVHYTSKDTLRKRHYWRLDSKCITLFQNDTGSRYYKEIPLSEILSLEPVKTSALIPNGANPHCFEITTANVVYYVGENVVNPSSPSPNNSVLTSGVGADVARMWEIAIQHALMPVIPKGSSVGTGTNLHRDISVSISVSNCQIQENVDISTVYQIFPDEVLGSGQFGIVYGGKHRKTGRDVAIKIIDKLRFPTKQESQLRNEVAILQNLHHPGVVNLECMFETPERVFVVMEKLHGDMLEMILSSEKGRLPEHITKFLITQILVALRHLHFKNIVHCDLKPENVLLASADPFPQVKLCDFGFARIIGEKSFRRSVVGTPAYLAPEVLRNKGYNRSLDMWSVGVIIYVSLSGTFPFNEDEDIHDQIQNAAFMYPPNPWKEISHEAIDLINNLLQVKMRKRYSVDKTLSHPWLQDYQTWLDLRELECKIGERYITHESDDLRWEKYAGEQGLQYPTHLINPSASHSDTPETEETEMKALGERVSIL
# Insulin prom inh cell count – further read-out of Insulin prom inh, marked with its call; normalized cell count, %; measured here: cell count, toxicity; reference of the scale not given here;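 cells exposed to compound for 48 h; stained nuclei by imaging scaled within each plate; lower means fewer cells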
# HSV augment primary fold – recorded beside HSV augment, whose call it bears; fold increase; compound at 10 µM; measured here: primary screen fold increase 10 uM; tested in PC3 cells;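 GFP signal in the first replicate; 1 = infected wells without compound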
# * hit, by the source's call; i = inactive; ? = inconclusive; nt = no result given; & = joins results of further samples. Outcome played no part in choosing rows (roughly 1.3% active in at least one column).
SMILES,RGS16-Gao,GALR2 agonist,HSV augment,HSV augment primary fold,Insulin prom inh,Insulin prom inh cell count,PKD1 kinase inh
O=C(NC(=S)Nc1nc(-c2ccc(Br)cc2)cs1)c1ccco1,95.0,nt,i,1.03,-7.1,130.2,0.4
O=C(COC(=O)CCOc1ccccc1)NCc1ccco1,82.0,-1.6,nt,nt,21.2,103.0,-7.4
COc1ccccc1N1C(=O)C=C(Sc2nc(C)cc(C)n2)C1=O,56.0,nt,i,1.11,nt,nt,nt
COc1ccccc1-c1cc2nc(C)cc(C)n2n1,105.2,nt,i,0.8,nt,nt,nt
COC(=O)N=Nc1c(O)n(Cc2ccccc2)c2ccccc12,102.0,nt,i,0.88,nt,nt,nt
CCCCC(=O)Nc1ccccc1Oc1ccccc1,101.8,nt,i,0.94,nt,nt,2.7
CC(C)Sc1nc(N2CCOCC2)c2c(c1C#N)CC(C)(C)SC2,104.6,1.6,i,0.73,-19.3,117.9,-8.5
CN(CCO)c1ccc(-c2nn(C)c(=O)c3ccccc23)cc1[N+](=O)[O-],98.3,nt,i,0.91,nt,nt,nt
COc1cc(NC(=O)c2cccnc2SC)cc(OC)c1,100.6,nt,i,1.09,nt,nt,-2.0
COc1ccccc1NS(=O)(=O)c1cc(NC(=O)c2cc[n+]([O-])cc2)ccc1N1CCCC1,100.1,nt,i,1.04,nt,nt,-0.2
COc1cccc(N2CCN(C3CC(=O)N(c4ccc(F)c(Cl)c4)C3=O)CC2)c1 (stereo not given),101.1,-3.0,i,0.92,9.7,136.0,-7.5
CCOc1ccc(NC(=O)NNC(=O)c2ccc(CC)s2)cc1,102.3,nt,i,0.88,nt,nt,1.8
CCOC(=O)c1[nH]cnc1C(=O)Nc1ccc(Cl)cc1,99.8,nt,i,1,nt,nt,4.6
COC(=O)Nc1ccc2c(c1)OCO2,91.5,-0.6,i,0.94,53.9,89.1,-10.9
Cc1ccc(CN2CCc3[nH]c(=O)[nH]c(=O)c3C2)cc1,104.5,nt,i,1.03,-33.3,47.5,5.2
COc1cccc(-c2nc3cc(C)ccc3o2)c1,84.7,-2.1,i,0.76,nt,nt,4.5
CCn1c(SCc2ccc(C)cc2)nnc1-c1cnccn1,74.1,-0.4,i,0.81,nt,nt,12.0
c1ccc(Cn2nnc3c(Nc4ccc5c(c4)OCO5)nc(C4CC4)nc32)cc1,98.4,1.3,i,0.95,nt,nt,-11.9
Cc1cc(C)cc(-n2c(SCC(=O)NCc3ccc4c(c3)OCO4)nc3ccccc3c2=O)c1,150.7,-0.8,i,1,46.9,65.6,-10.9
Cc1cc(C)nc(SCc2nnc(SCc3ccc([N+](=O)[O-])cc3)n2Cc2ccco2)n1,58.9,0.0,i,1.03,-25.0,121.6,0.4
Cc1noc(C)c1CSc1nnc(-c2cc(Cl)ccc2Cl)n1N,106.4,-2.1,i,1.06,nt,nt,-5.6
COc1ccc(CNC(=O)CN2C(=O)CC(c3ccccc3)=Nc3ccccc32)cc1,104.0,nt,i,1.16,nt,nt,3.7
CC(C)(C)c1nnc(NC(=S)Nc2ccccc2)s1,113.7,nt,i,0.97,nt,nt,-3.5
O=C(O)c1cnn(-c2ccccc2)c1-c1ccccc1,101.7,-0.8,i,0.82,10.7,94.9,-10.0
CCCc1cc(C(=O)Cc2nc3ccccc3s2)c(O)cc1O,106.4,-0.1,i,1.02,-2.8,51.5,-2.9

# A draw from above in order of count of non-hydrogen atoms, smallest number first.
SMILES,RGS16-Gao,GALR2 agonist,HSV augment,HSV augment primary fold,Insulin prom inh,Insulin prom inh cell count,PKD1 kinase inh
COc1cccc(-c2nc3cc(C)ccc3o2)c1,84.7,-2.1,i,0.76,nt,nt,4.5
CC(C)(C)c1nnc(NC(=S)Nc2ccccc2)s1,113.7,nt,i,0.97,nt,nt,-3.5
CCCCC(=O)Nc1ccccc1Oc1ccccc1,101.8,nt,i,0.94,nt,nt,2.7
COc1cc(NC(=O)c2cccnc2SC)cc(OC)c1,100.6,nt,i,1.09,nt,nt,-2.0
O=C(COC(=O)CCOc1ccccc1)NCc1ccco1,82.0,-1.6,nt,nt,21.2,103.0,-7.4
CCOc1ccc(NC(=O)NNC(=O)c2ccc(CC)s2)cc1,102.3,nt,i,0.88,nt,nt,1.8
CC(C)Sc1nc(N2CCOCC2)c2c(c1C#N)CC(C)(C)SC2,104.6,1.6,i,0.73,-19.3,117.9,-8.5
COc1cccc(N2CCN(C3CC(=O)N(c4ccc(F)c(Cl)c4)C3=O)CC2)c1 (stereo not given),101.1,-3.0,i,0.92,9.7,136.0,-7.5
COc1ccc(CNC(=O)CN2C(=O)CC(c3ccccc3)=Nc3ccccc32)cc1,104.0,nt,i,1.16,nt,nt,3.7
COc1ccccc1NS(=O)(=O)c1cc(NC(=O)c2cc[n+]([O-])cc2)ccc1N1CCCC1,100.1,nt,i,1.04,nt,nt,-0.2
Cc1cc(C)cc(-n2c(SCC(=O)NCc3ccc4c(c3)OCO4)nc3ccccc3c2=O)c1,150.7,-0.8,i,1,46.9,65.6,-10.9

# Later entries:
SMILES,RGS16-Gao,GALR2 agonist,HSV augment,HSV augment primary fold,Insulin prom inh,Insulin prom inh cell count,PKD1 kinase inh
Cc1ccccc1N1CCN(C(=O)CN2C(=O)c3ccccc3C2=O)CC1,103.8,-2.2,i,0.8,0.0,83.7,12.2
O=C(NCc1ccco1)c1ccc(CNc2c(N3CCCCC3)c(=O)c2=O)cc1,106.5,0.1,nt,nt,12.2,115.4,4.0
CCOc1ccc(N(CC(=O)NC(C)CC)S(C)(=O)=O)cc1 (stereo not given),102.1,-2.3,i,0.82,-25.0,132.9,0.3
N=c1ccn(Cc2cccc(Cl)c2)cc1,107.4,-1.1,i,1.15,-25.0,66.2,4.0
CN1CCN(c2nc(NCc3ccco3)nc(N)c2[N+](=O)[O-])CC1,101.6,nt,i,0.6,nt,nt,nt
COc1cccc(CNC(=O)CN(C)S(=O)(=O)c2cnc[nH]2)c1,84.4,-1.1,i,1.07,nt,nt,-3.9
CCc1ccnc(NS(=O)(=O)c2ccc3c(c2)CCO3)c1,96.5,nt,i,1.07,nt,nt,nt
O=C(Nc1ncc2c(n1)CC(c1ccco1)CC2=O)c1ccco1 (stereo not given),92.4,nt,i,1.03,nt,nt,nt
O=C(CSc1nnc(-c2cccnc2)n1Cc1ccco1)N1c2ccccc2Sc2ccccc21,94.6,-0.4,i,0.83,-42.9,119.1,-8.1
COc1ccc2c(=O)c3c(=O)n(-c4ccccc4)c(-c4ccco4)nc3oc2c1,96.5,-1.8,i,1,-10.3,147.3,-4.2
COc1ccc(CN(C(=O)c2cc3ccccc3oc2=O)C2CCCC2)cc1,98.0,-2.4,i,0.94,13.3,39.0,-1.7
O=C(NC1=NCCS1)c1cc(-c2ccc(F)cc2)nc2ccccc12,109.6,-3.4,i,0.84,-37.5,62.7,-6.7
O=C(/C=C/c1ccccc1)NCCC1=CCCCC1,96.5,-1.0,i,0.85,-2.9,130.2,2.7
COc1cc2c(cc1OC)-c1cc(NC3CCCCC3)nc(=O)n1CC2,107.1,-0.7,i,0.91,-69.2,201.3,-3.4
COc1ccc2c(c1OC)C(=O)N(C(C)C(=O)O)C2=O (stereo not given),94.1,-0.6,i,0.95,nt,nt,-4.5
N#CC1=C2SCCN2C(=O)C(C#N)C12CCCCC2 (stereo not given),-10.3*,0.1,i,0.84,-14.3,152.5,-6.7
CCn1ncc(Cl)c1C(=O)Nc1ccncc1,102.3,-0.5,i,0.98,-31.2,128.8,-4.8
CSc1cccc(NC(=O)CCc2ccccc2)c1,105.3,nt,i,1.03,nt,nt,-3.0
CCOc1ccc(NC(=S)N2c3ccccc3CC2C)cc1 (stereo not given),100.9,nt,i,0.96,-40.0,77.5,6.0
Cc1ccc(OCc2nnc(SCC(=O)c3cccs3)n2-c2ccccc2)cc1C,97.7,-0.5,i,0.99,-17.9,98.1,-7.5
Cc1ncc2c(c1OC(=O)c1ccccc1)COC(C)(C)OC2,115.2,-1.5,i,0.95,-19.4,114.9,-2.6
O=C(O)c1ccccc1-n1c(-c2ccccc2)cc2c1CCCC2=O,98.3,nt,i,1.19,nt,nt,0.9
CCCC(C)C(=O)NCc1ccc2c(c1)OCO2 (stereo not given),103.3,-1.3,i,0.87,-3.1,182.9,-1.9
CC(NCC1(N2CCOCC2)CCCCC1)C(=O)Nc1ccc(Cl)cc1Cl (stereo not given),100.1,nt,i,0.86,-28.6,134.8,0.5
O=C(Cc1coc2ccc3ccccc3c12)NC1CCCc2ccccc21 (stereo not given),85.0,0.2,i,1,-25.8,104.4,3.4
# Remaining list, next part:
SMILES,RGS16-Gao,GALR2 agonist,HSV augment,HSV augment primary fold,Insulin prom inh,Insulin prom inh cell count,PKD1 kinase inh
Cc1ccc(C2(C)NC(=O)N(CC(=O)Nc3c(C)n(C)n(-c4ccccc4)c3=O)C2=O)cc1 (stereo not given),95.0,-0.3,i,1.16,nt,nt,-6.1
CCN1CCN(C(C(=O)NC2CCCCC2)c2ccc(Cl)cc2)CC1 (stereo not given),114.9,0.0,i,0.98,-16.7,185.1,0.6
CCS(=O)(=O)c1cc([N+](=O)[O-])c(Sc2ccccc2NC(C)=O)s1,9.3*,nt,i,1.02,nt,nt,nt
CC1Cc2ccccc2N1CC(=O)NCc1ccc2c(c1)OCO2 (stereo not given),96.8,-1.4,i,1.1,nt,nt,3.6
COc1ccc(/C=C2\NC(=S)N(CC3CCCO3)C2=O)c(OC)c1C (stereo not given),112.8,-1.7,i,1.03,3.3,138.9,-0.8
CC(C)(C)C1=NN(c2ccc([N+](=O)[O-])cc2)C(c2ccccc2)C1 (stereo not given),92.2,nt,?,nt,-100.0,72.8,-11.4
CCC1C(=O)Nc2nc(-c3ccccc3)c(-c3ccccc3)n2N=C1C (stereo not given),106.3,0.7,i,0.93,-62.5,67.1,-1.5
O=[N+]([O-])c1c(NCCO)cc(N2CCC3(CC2)OCCO3)c2nonc12,88.4,-0.9,i,0.97,-63.3,99.3,-2.2
COc1ccc(S(=O)(=O)Nc2ccc(NC(C)=O)cc2)cc1OC,99.2,-2.5,i,0.89,1.4,183.1,1.5
CCOC(=O)N1CCN(Cc2nc(-c3ccc(C)cc3)no2)CC1,103.1,-0.8,i,0.61,-10.3,133.3,-6.6
COc1ccc(CCNC(=O)CCN2C(=O)c3ccccc3C2=O)cc1OC,103.4,nt,i,1.06,10.5,85.6,-8.2
O=C1NCC(COc2ccc(Cl)cc2)O1 (stereo not given),101.8,nt,i,0.95,0.0,163.0,-6.2
C=CCC1(O)C(=O)N2C(=C1C(=O)OCC)c1ccc3ccccc3c1CC2(C)C (stereo not given),108.3,-4.1,nt,nt,-10.0,131.4,-0.9
CCOCCCNC(=O)CN1CCN(c2ccc(F)cc2)CC1,102.8,-1.6,i,1.07,nt,nt,0.2
COc1c(Cl)cc(Cl)cc1C(=O)Nc1ccc(NC(=O)c2cccs2)cc1,27.6,-1.8,i,0.92,25.0,91.1,9.6
CCOc1ccc2nc(SCC(=O)N3c4ccccc4Sc4ccccc43)sc2c1,99.4,-1.9,i,0.89,36.5,90.6,-0.3
CSCCC(NS(=O)(=O)c1ccccc1F)C(=O)OCc1ccccc1Cl (stereo not given),106.7,-1.2,i,1.1,-35.9,98.8,-4.9
CCN(CC)CCNC1=CC(=O)OC12CCCCC2,105.7,-0.7,i,0.94,40.0,170.9,-9.1
COc1cc(/C=N/Nc2cccc(C)c2)cc(Br)c1O,98.7,nt,i,0.94,nt,nt,-4.7
O=C(CN1C(=O)NC2(CCCCCC2)C1=O)NC1CCCCCCC1,100.7,nt,i,0.91,nt,nt,-4.8
CCOC(=O)Cn1c(-c2ccccc2)ccc(C#N)c1=O,104.3,nt,i,1.01,5.0,46.0,0.3
N#Cc1ccccc1NC(=O)COC(=O)c1ccc(S(=O)(=O)N2CCCC2)cc1,98.9,-0.9,i,1,-3.9,101.4,-14.7
O=C(CN1CCN(c2ccccc2F)CC1)N1N=CCC1c1ccccc1 (stereo not given),121.8,-0.8,i,0.93,16.9,56.6,3.3
CSc1ccc2c(c1)C(N1CCN(C)CC1)Cc1ccccc1S2 (stereo not given),97.8,nt,i,0.63&0.57,nt,nt,nt
CC(=O)N1CCc2ccc(NC(=O)c3c(-c4c(Cl)cccc4Cl)noc3C)cc21,101.1,nt,i,1.06,nt,nt,nt
O=C(CO/N=C/c1ccc(OC(F)F)cc1)N1CCc2ccccc21,95.9,-1.3,i,0.87,33.3,50.1,-7.7
Cc1nn(-c2ccccc2)c(C)c1/C=N/NC(=O)CSc1nc2ccccc2c(=O)n1-c1ccc(Br)cc1,106.3,0.8,i,0.967,nt,nt,1.2
O=C(c1ccc(C(F)(F)F)cc1)C1CCCN(C(=O)CN2C(=O)CSC2=O)C1 (stereo not given),106.1,nt,i,0.99,nt,nt,6.9

# High-throughput results as filed in PubChem.
